Vif A3G = inhibitors of Vif binding to APOBEC3G peptide, primary screen, biochemical, TR-FRET, GST-Vif 1-94, biotin-A3G peptide, dose response retest (AID 1117319) | TR-FRET GST-Vif / biotin-A3G peptide binding; higher % means a stronger effect; test concentration not given here; strong numbers were not always called active | inhibition, %; hits with a dose series show IC50 in µM | 260,000 tested, 0.57% active;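 active = above the screen mean plus three standard deviations and confirmed in dose response; inconclusive = results disagree or hit not tested in dose response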;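 also: Vif residues 1-94 fused to GST binding biotinylated APOBEC3G peptide 110-148; 0% = full assay without inhibitor and 100% = GST in place of GST-Vif; retest series ran down from 100 µM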
T cruzi inh = inhibitors of intracellular T. cruzi growth, primary screen, luminescence, NIH3T3 host cells; AID 1885, 2009; inhibition, % (test concentration not listed); T. cruzi beta-gal in NIH3T3, 90 h; 300,000 tested, 1.4% active;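 active = mean inhibition across valid replicates above about 55%, limit read from the data; inconclusive = mean below that limit but half or more replicates reach it; inactive = mean below it, under half of replicates reach it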;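 also: signal also drops with host cell toxicity which is not excluded here; 0% = plate median of DMSO wells and 100% = zero luminescence signal; higher percent means less beta-gal luminescence so fewer parasites; stock transfer was 50 nL into about 50 µL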
Calb FLC = C. albicans growth inhibition with fluconazole, primary screen, CaCi-2 strain, Alamar Blue fluorescence; C. albicans CaCi-2 (fluconazole-resistant clinical isolate) + fluconazole, 48 h; growth inhibition, % (test concentration not listed); 300,000 tested, 0.57% active;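 active = most replicates above 75%; inconclusive = exactly half above 75%; inactive = most below 75%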;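 also: all wells also contain fluconazole at 8 µg/ml as a sub-toxic cotreatment; 0% = median of DMSO wells and 100% = median of geldanamycin control wells; wells of about 8 µL received 7.5 nL stock; the first replicate is given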
Beta cell apopt = inhibitors of cytokine-induced beta cell apoptosis, primary screen, luminescence. AID 435005, 2010. protection from apoptosis, % (no concentration beside the values). 300,000 tested, 0.8% active. INS-1E cytokine-induced death, ATP luminescence, 48 h; percent of positive-control rescue, neutral wells zero;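 active = all replicates at 75% or more, or half of them and the mean; inconclusive = half reach 75% but not the mean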;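 also: 0% = cytokine-treated negative control wells and 100% = positive control rescue; higher means more ATP so stronger rescue from cytokine killing; wells of about 40 µL received 100 nL stock; the first replicate is given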
RanGTP-Impb inh = inhibitors of RanGTP-importin-beta interaction, primary screen, biochemical, FRET, CFP-Ran, YFP-importin-beta, homogeneous. cell-free CFP-Ran/YFP-importin-beta FRET ratio. 300,000 tested, 1.1% active. Ran GTPase (GTP-bound) - importin-beta complex. inhibition, % (concentration not given with the values);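 active = most replicates above 15%; inconclusive = exactly half above 15%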;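 also: 0% = DMSO wells and 100% = Ran loaded with GDP instead of GTP; wells of about 40 µL received 100 nL stock; the first replicate is given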
Ecoli rRNA inh = reduced GFP signal of wild-type E. coli, primary screen, bacterial rRNA inhibitor project, GFP/RFP fluorescence, OD600, single point | AID 720706, 2013 | 350,000 tested, 1.6% active | E. coli WT GFP vs humanized-ribosome RFP mutants, 24 h; hits give low values; DMSO median 0, no signal -100 | GFP signal change (wild-type ribosome), % (no concentration beside the values);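 active = significant combined selectivity score with lowered wild-type GFP, culture density cut under 30%, mutant RFP and density less affected; inactive = any of these conditions unmet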; also: one replicate is shown; some compounds called inactive have numbers as strong as hits
MLL AF4-AF9 inh = inhibitors of AF4 peptide binding to AF9, primary screen, biochemical, AlphaScreen, biotin-AF4 peptide, FLAG-AF9, single point; inhibition, % at 10 µM; 350,000 tested, 0.47% active; Protein AF-9 (Homo sapiens), P42568;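 active = every replicate reaching a set inhibition limit, whatever the replicate mean, cut at about 25% in these data; inconclusive = mean inhibition reaches that limit but some replicates miss it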;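 also: 0% = plate neutral control median and 100% = total signal loss; the record names both 10 and 1 µM as test concentration; the first replicate is given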
Target sequence (P42568 whole entry, looked up): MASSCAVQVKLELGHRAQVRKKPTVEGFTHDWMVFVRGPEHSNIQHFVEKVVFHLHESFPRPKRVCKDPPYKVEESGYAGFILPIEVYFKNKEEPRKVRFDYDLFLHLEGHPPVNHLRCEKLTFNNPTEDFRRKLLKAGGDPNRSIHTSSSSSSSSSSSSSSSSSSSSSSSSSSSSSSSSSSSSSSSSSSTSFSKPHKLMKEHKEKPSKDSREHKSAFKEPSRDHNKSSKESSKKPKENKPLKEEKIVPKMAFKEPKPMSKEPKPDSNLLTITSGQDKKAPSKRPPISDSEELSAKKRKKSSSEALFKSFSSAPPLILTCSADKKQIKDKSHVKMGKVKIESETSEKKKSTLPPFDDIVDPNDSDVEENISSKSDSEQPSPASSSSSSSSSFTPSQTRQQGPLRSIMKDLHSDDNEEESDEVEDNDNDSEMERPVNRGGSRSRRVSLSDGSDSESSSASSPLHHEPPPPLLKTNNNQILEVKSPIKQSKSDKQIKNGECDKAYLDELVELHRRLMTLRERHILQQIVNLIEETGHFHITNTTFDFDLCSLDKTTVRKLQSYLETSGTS
Bfl-1 A1 inh = caspase 3/7 activation in MEF A1-2A-BIM cells, primary screen, A1 inhibitor project, cell-based, luminescence, HTS; AID 2462, 2010; Caspase-Glo 3/7 luminescence, 3 h; percent of clofoctol response, vehicle zero; caspase activation, % (concentration not given with the values); 330,000 tested, 0.066% active;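 active = over half of replicate activation scores above 10%, or exactly half above 10 with the replicate mean above 10; inconclusive = replicate mean below 10 yet half the replicates above 10; inactive = over half of replicates below 10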;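 also: wells of about 30 µL received 50 nL stock; many hits fall short of the cut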
Ecoli rRNA inh OD600 = further read-out of Ecoli rRNA inh, marked with its call; OD600 change, %; measured here: OD600 growth;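 optical density of the mix in the first replicate; 0 = DMSO median and -100 = no signal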
Ecoli rRNA inh RFP = also measured in Ecoli rRNA inh; calls as there; RFP signal change, %; measured here: RFP humanized mutant strains;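 first replicate; 0 = DMSO median and -100 = no signal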
Active calls of the source: *; ? = inconclusive; / = no result given. Not all compounds are listed. The share of hits here may be higher or lower than overall.

Compound	Vif A3G	T cruzi inh	Ecoli rRNA inh RFP	RanGTP-Impb inh	Beta cell apopt	Ecoli rRNA inh OD600	MLL AF4-AF9 inh	Calb FLC	Bfl-1 A1 inh	Ecoli rRNA inh
CC(=O)N1CCCc2cc(S(=O)(=O)CCC(=O)N3CCN(c4cccc(C)c4)C(C)C3)ccc21 (stereo not given)	28%	1	2.2	-0.8	-4	-3	-19	0	0.8	5
O=C(NC(=S)N1CCOCC1)c1ccc(F)cc1	/	-59	-2.9	-2.9	-2	9	-3.8	1	0.5	6
CCOC(=O)c1cc(-c2ccc(Cl)cc2)nc2c1c(=O)[nH]c(=O)n2CCOC	9%	19	1.7	-4.4	5	22	-1.0	37	-0.3	17
O=C(NCCc1ccccc1)c1ccc2nc(-c3ccco3)c(-c3ccco3)nc2c1	3µM*	-1	/	39*	-2	/	/	-4	-0.1	/
Nc1nc2ccccc2n1/N=C/c1ccc(Br)cc1	?	4	5.6	5.7	6	6	-17	4	-5.3	10
Cc1ccc(SCC(=O)NCC(C)C)cc1	20%	-11	/	0.7	1	/	/	-4	0.3	/
Cc1[nH]ccc2c1[nH]c1cc(=O)ccc12	8%	-3	-3.3	-0.3	-1	14	0.1	3	-0.2	12
O=C(Nc1ccc2ccccc2n1)Nc1ccccc1F	3%	-2	2.0	1.9	-1	9	-1.9	-6	-0.2	10
COC(=O)Nc1ccccc1C(=O)N1CCN(c2ccc(C)cc2)CC1	1%	-7	-2.0	-0.7	-6	4	-1.3	37	-0.9	0
COc1ccc(C2=NO[C@@H]3[C@@H]4C[C@@H]([C@H]5C(=O)N(C)C(=O)[C@@H]45)[C@H]23)c(OC)c1	-17%	3	0.0	1.3	-7	7	-1.3	-14	0.3	7
C=CCn1c(Cc2ccccc2)nnc1SCc1nc2ccccc2c(=O)[nH]1	-10%	-2	20	1.9	-10	3	-0.8	25	-0.5	10
O=C(CCN1C(=O)/C(=C\C=C\c2ccccc2)SC1=S)Nc1cccc(C(=O)O)c1	-1%	1	-1.6	-0.8	-16	-3	1.4	-1	1.9	1
O=C(Cc1ccc(-c2ccccc2)cc1)N1CCOCC1	0%	-10	/	-1.3	-1	/	/	-1	-1.5	/
O=C(C1=NNCC1c1ccccc1)C1OC1c1ccccc1 (stereo not given)	/	-3	0.8	4.0	0	-8	/	-10	1.2	-9
Nn1c(SCC(=O)Nc2nccs2)nnc1-c1ccccn1	0%	-14	-0.1	4.2	/	14	-17	-9	0.8	12
CCOc1cccc(C2C(C(=O)c3ccc(C)o3)=C(O)C(=O)N2c2nccs2)c1 (stereo not given)	-7%	2	/	-1.0	4	/	/	-3	-0.3	/
COc1cc(Cl)c(S(=O)(=O)NCc2cccnc2)cc1Cl	2%	-19	-2.5	2.7	-4	-2	9.8	8	0.7	2
CC1CCCN(c2ccc(C(=O)NCCc3ccccc3)cn2)C1 (stereo not given)	4%	21	0.8*	1.9	-2	-8.6*	-4.5	30	-0.8	-20*
Nn1c(-c2cccs2)nc2sc3c(c2c1=O)CCCC3	-2%	12	/	3.4	6	/	/	15	-4.3	/
CCOC(=O)CC1C(=O)NCCN1S(=O)(=O)c1cc(Cl)c(Cl)cc1Cl (stereo not given)	?	-12	/	2.6	5	/	/	-2	0.0	/
CN1c2ccccc2C(C)(C)[C@]12C=Cc1cc(O)ccc1O2	?	34	/	?	47	/	/	5	0.3	/
O=C(O)c1ccc(N/N=C/C2=C(N3CCOCC3)C(=C\c3ccccc3)/CC2)cc1	?	-12	-4.2*	5.6	3	-2.4*	2.0	1	0.3	-36*
CC(C)C[C@H]1CN=C(Nc2ccccc2)N1CCC(C)c1ccccc1 (stereo not given in full)	/	/	-7.0	/	103*	-69	2.4	/	1.2	-44
O=C(NCCN1CCNC1=O)C1CCC(=O)N(Cc2ccccc2F)C1 (stereo not given)	/	-3	-2.5	2.3	3	18	-2.1	-5	-1.7	13
CCOC(=O)c1c(C)[nH]c(C(=O)OCC(=O)N(C)CC(=O)Nc2ccccc2Cl)c1C	/	6	-0.1	-0.5	-4	1	0.6	/	-1.0	2
Cc1c(C2OC(=O)C3(CCCCC3)C(=O)C2(C)C)c(=O)n(-c2ccccc2)n1C (stereo not given)	21%	-4	/	6.6	-1	/	/	-1	2.7	/
CCOc1ccc(S(=O)(=O)NCc2cccs2)cc1	4%	1	/	0.7	-2	/	/	-4	0.3	/
CN(C)c1ccc(N/C=C/C(=O)C(F)(F)F)cc1	8%	35	15	3.5	4	11	-4.5	2	-0.2	8
CCN(CC)C(=O)CSc1nc2cc3c(cc2c(=O)n1Cc1ccc2c(c1)OCO2)OCO3	-6%	21	/	?	-3	/	/	10	0.8	/
COc1ccc(N2C(=O)CC(N(CCc3ccc(OC)c(OC)c3)C(=S)Nc3ccccc3)C2=O)cc1 (stereo not given)	15%	1	-11	4.7	0	6	-6.0	18	-0.2	5
O=C(COC(=O)Cn1cnc2ccccc21)NCc1ccc(F)cc1	-11%	-5	-3.8	-5.1	-1	10	-1.8	-17	1.9	10
C=CCOC(=O)Nc1ccc(Cl)cc1NC(=O)OCC=C	22%	13	/	8.5	-7	/	/	-26	0.7	/
CCOc1ccc2nc(NC(=O)CS(=O)(=O)c3ccc(C)cc3)sc2c1	-1%	7	0.8*	-1.7	4	-18*	/	1	-0.3	-26*
COc1ccc(-c2ccc(SCC(=O)Nc3cc(C)on3)nn2)cc1OC	19%	-5	/	2.2	-5	/	/	-5	-0.6	/
COc1ccc(-c2csc(NC(=O)COC(=O)c3ccco3)n2)cc1	/	-7	-2.3	?	-2	4	-4.3	6	-4.7	7
Clc1ccc(SCCN2CCNCC2)cc1	16%	63*	0.0	9.2	-7	0	5.3	-34	-0.3	4
CCCNCC(O)Cn1c2ccccc2n2c(=O)cc(C)c(C#N)c12 (stereo not given)	/	16	/	0.4	13	/	3.7	-12	1.8	/
C/C(CC(=O)Nc1cc(C)cc(C)c1)=N\NC(=O)c1ccccn1	3%	-12	-3.8	-2.3	3	-2	2.4	1	0.5	7
O=C(NNC(=O)c1ccccc1Cl)c1ccco1	-5%	1	4.7	?	-3	7	3.1	-4	0.6	20
CC(=O)Nc1sc(NC(=O)c2ccc(C)cc2)nc1-c1cccs1	4%	8	/	-1.6	4	/	/	-8	-0.5	/
O=C(NCCCN1CCOCC1)c1ccc(Cl)cc1Cl	-8%	19	15	-0.6	-8	16	0.2	5	-0.1	7
Cc1ccc(S(=O)(=O)N(C)CCCC(=O)Nc2cccc3ccccc23)cc1	0%	-19	-0.4	3.0	0	-36	-2.5	-33	-0.4	-24
CC(=O)N1CCCc2cc(S(=O)(=O)N3CCCC(C(=O)N4CCN(c5cccc(Cl)c5)CC4)C3)ccc21 (stereo not given)	/	32	6.2	-1.9	90*	-14	4.5	13	-1.5	3
OCCC1CN(C2CCC2)CCN1Cc1ccc(F)c(F)c1 (stereo not given)	10%	-12	-1.0	1.0	-4	8	-0.5	0	0.7	8
COc1cc(N)c(Cl)cc1NC(=O)c1ccccc1	-3%	-60	/	-4.3	-10	/	/	-2	0.3	/
Cc1csc(NC(=O)CSc2nc3ccccc3c(=O)[nH]2)n1	0%	1	/	4.4	2	/	/	12	-0.5	/
CCN(c1ccc(NC(=O)COC(=O)c2ccc([N+](=O)[O-])o2)cc1)C(C)C	86%	/	-6.2	/	2	13	3.7	/	0.4	-4
COc1cc2c(cc1OC)C(C)N(C(=O)Cn1ncc3c1-c1ccccc1OC3)CC2 (stereo not given)	-3%	-7	-0.2	0.6	-4	6	-0.8	-10	0.0	8
COC(=O)c1cn(NC(=O)c2cc(OC)cc(OC)c2)c(=O)c2ccccc12	-7%	8	/	-3.5	0	/	/	-1	0.2	/
CCCCC[n+]1ccn(C2=C([O-])c3ccccc3C(=O)/C2=N\S(=O)(=O)c2ccc(Br)cc2)c1	-15%	0	/	-0.7	/	/	1.0	5	-0.7	/

Next part:
Compound	Vif A3G	T cruzi inh	Ecoli rRNA inh RFP	RanGTP-Impb inh	Beta cell apopt	Ecoli rRNA inh OD600	MLL AF4-AF9 inh	Calb FLC	Bfl-1 A1 inh	Ecoli rRNA inh
Cc1onc(-c2c(F)cccc2Cl)c1C(=O)NC(=S)NCc1cccnc1	25%	32	-1.0	4.0	/	-17	3.9	10	-0.1	-15
CS(=O)(=O)N1CCN(c2ccc(C(=O)NC3C4CC5CC(C4)CC3C5)cc2[N+](=O)[O-])CC1 (stereo not given)	0%	-8	/	3.5	6	/	/	39	-0.4	/
CN(C)S(=O)(=O)c1cccc(NC(=O)CCc2c[nH]c3ccccc23)c1	11%	-1	-1.0	-1.4	-1	-7	5.5	10	0.9	3
O=C(CN1C(=O)CSC1=O)Nc1ccc2c(c1)OCCO2	2%	-4	/	7.7	1	/	/	-6	-0.3	/
c1ccc(CN2C3=NCCN3c3ccccc32)cc1	-6%	-3	/	0.0	-9	/	/	-6	1.5	/
C/C(CCN1CCCCc2nc(C)c(C)cc21)=N\O[C@@H](C)CN1CCCCc2nc(C)c(C)cc21	?	11	/	5.8	-7	/	/	-11	-0.1	/
COc1ccc(NC(=O)N2CC(C)OC(C)C2)cc1OC (stereo not given)	32%	4	/	5.2	-6	/	/	-1	0.1	/
CC1=NNC(=O)C1C(c1ccc(F)cc1)C(C#N)C#N (stereo not given)	3%	-3	/	-0.8	2	/	/	-2	0.1	/
Cc1cccc(OCC(O)Cn2c(N3CCCCC3)nc3c2c(=O)[nH]c(=O)n3C)c1 (stereo not given)	2%	-14	-1.8	0.4	2	9	-1.4	-8	0.9	7
Cc1ccc(NC(=O)CCc2ccc(C)o2)c(C)c1	-5%	-24	1.3	2.1	/	8	0.9	19	-0.4	10
O=C(N/N=C/c1sc(N2CCOCC2)nc1-c1ccccc1)c1ccccc1O	?	3	/	6.1	42	/	/	2	-0.3	/
CCOc1ccc(-c2nc(N)ncc2Oc2ccc(OC)cc2)c(O)c1	14%	14	10.0	-1.5	-22	-16	-1.2	-10	-1.2	-11
O=C(COC(=O)/C=C/c1cccc(Br)c1)NCc1ccco1	11%	-10	1.0	-2.4	-2	-9	2.8	-2	0.5	-8

Source: PubChem BioAssay
